Compound activity from PubChem BioAssay.
AF4-AF9 inh – MLL-AF4/AF9 protein interaction inhibition; P42568; AlphaScreen, biotin-AF4 peptide binding to FLAG-AF9; hit rate 0.47% among 350,000; inhibition, % at 10 µM;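 active means every replicate reaching a set inhibition limit, whatever the replicate mean, cut at about 25% in these data; inconclusive means mean inhibition reaches that limit but some replicates miss it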;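 further: 0% = plate neutral control median and 100% = total signal loss; the record names both 10 and 1 µM as test concentration; the first replicate is given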
Target sequence (P42568 whole entry, looked up): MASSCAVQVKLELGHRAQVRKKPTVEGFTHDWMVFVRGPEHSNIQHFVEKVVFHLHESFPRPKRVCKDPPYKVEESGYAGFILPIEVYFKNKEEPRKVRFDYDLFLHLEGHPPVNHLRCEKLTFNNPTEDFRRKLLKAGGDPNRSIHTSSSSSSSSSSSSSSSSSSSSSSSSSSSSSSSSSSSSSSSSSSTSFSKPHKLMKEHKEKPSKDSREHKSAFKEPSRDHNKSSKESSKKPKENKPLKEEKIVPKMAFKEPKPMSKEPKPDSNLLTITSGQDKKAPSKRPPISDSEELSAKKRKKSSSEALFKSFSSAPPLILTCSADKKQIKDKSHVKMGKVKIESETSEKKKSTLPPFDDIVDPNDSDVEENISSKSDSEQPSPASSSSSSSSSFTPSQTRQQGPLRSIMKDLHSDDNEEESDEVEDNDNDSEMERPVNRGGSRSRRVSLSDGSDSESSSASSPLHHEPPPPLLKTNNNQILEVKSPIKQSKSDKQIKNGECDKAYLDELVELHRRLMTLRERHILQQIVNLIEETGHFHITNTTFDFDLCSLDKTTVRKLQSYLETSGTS
FGF22 binding – binders of recombinant human FGF22 by thermal shift; Q9HCT0; SYPRO orange fluorescence; percent of sucrose octasulfate shift, DMSO zero; calls only at 9.99 µM; hit rate 1.5% among 340,000; AID 651658;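 active means melting point raised past a set limit in the mean and every replicate; inconclusive means no clear call; three in four hits are not shown here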
Target sequence (Q9HCT0 whole entry, looked up): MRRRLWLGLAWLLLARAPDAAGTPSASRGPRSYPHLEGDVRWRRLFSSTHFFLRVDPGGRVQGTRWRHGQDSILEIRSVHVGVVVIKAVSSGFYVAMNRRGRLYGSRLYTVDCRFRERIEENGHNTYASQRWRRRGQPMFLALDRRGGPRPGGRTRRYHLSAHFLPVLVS
RanGTP-Imp inh – disruptors of Ran-importin-beta complex formation – biochemical, FRET, CFP-Ran, YFP-importin-beta, homogeneous, primary screen. inhibition, % (test concentration not listed). hit rate 1.1% among 300,000. cell-free CFP-Ran/YFP-importin-beta FRET ratio. AID 2216;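 active means most replicates above 15%; inconclusive means exactly half above 15%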;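 further: 0% = DMSO wells and 100% = Ran loaded with GDP instead of GTP; wells of about 40 µL received 100 nL stock; the first replicate is given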
UCH37 inh – inhibitors of human deubiquitinating enzyme UCH37 | Q9Y5K5 | purified proteasome/UCH37, Ub-AMC cleavage fluorescence | inhibition, % (test concentration not listed) | hit rate 0.33% among 330,000 | AID 588478;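 active means mean of two replicates above 20%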;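 further: 0% = compound-free wells with enzyme and 100% = wells lacking proteasome; stock transfer was 100 nL into about 20 µL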
Target sequence (Q9Y5K5 whole entry, looked up): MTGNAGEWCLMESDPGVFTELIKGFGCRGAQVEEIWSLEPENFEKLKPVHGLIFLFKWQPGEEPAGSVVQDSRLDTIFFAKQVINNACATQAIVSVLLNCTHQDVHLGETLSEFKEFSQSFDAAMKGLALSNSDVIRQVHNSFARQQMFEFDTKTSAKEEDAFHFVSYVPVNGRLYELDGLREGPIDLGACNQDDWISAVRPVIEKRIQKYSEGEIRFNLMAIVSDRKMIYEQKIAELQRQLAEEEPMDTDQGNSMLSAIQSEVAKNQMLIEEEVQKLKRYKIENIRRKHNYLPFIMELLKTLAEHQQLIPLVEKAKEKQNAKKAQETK
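Test system – human UCH37 enzyme supplied as purified proteasome complex · Incubation – 30 min preincubation with enzyme, 25 min cleavage at room temperature · Detection – AMC fluorescence from Ub-AMC cleavage, excitation 355 nm, emission 460 nm · Benchmarks – no-proteasome wells (full inhibition) and compound-free wells (no inhibition)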
HNF4A DNA FP – change in binding of human HNF4 alpha to DNA | P41235 | hit rate 0.3% among 360,000 | HNF4a-FITC DNA binding, fluorescence polarization, 1 h | activity change, % at 10 µM; in the data active means activity change above about 30%, passing the limit was not always enough;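 further: controls were the assay level and a saturating level of protein; the project sought stronger binding though the title names inhibitors; some compounds called inactive have numbers as strong as hits; positive values seem to mean higher polarization but the record does not say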
Vif TR-FRET – HIV-1 Vif–A3G interaction blockers – biochemical, TR-FRET, GST-Vif 1-94, biotin-A3G peptide, dose response retest, primary screen (AID 1117319); hit rate 0.57% among 260,000; TR-FRET GST-Vif / biotin-A3G peptide binding; higher % means a stronger effect; test concentration not given here; strong numbers were not always called active; one-dose inhibition, %; IC50 in µM for titrated hits;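 active means above the screen mean plus three standard deviations and confirmed in dose response; inconclusive means results disagree or hit not tested in dose response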;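 further: Vif residues 1-94 fused to GST binding biotinylated APOBEC3G peptide 110-148; 0% = full assay without inhibitor and 100% = GST in place of GST-Vif; retest series ran down from 100 µM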
E coli growth – inhibitors of Escherichia coli growth; hit rate 0.21% among 330,000; OD600 absorbance (concentration not given with the values); OD600, 23 h; hits give low values;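 active means OD600 absorbance below the run mean of sample wells minus 3.6 SD, in any replicate, cut at about 0.56 in these data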;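 further: stock transfer was 300 nL into about 60 µL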
The depositor's hits bear a star; i = inactive; u = inconclusive; x = not tested or not shown. The list is partial; rates above refer to the full screens.

AF4-AF9 inh,FGF22 binding,RanGTP-Imp inh,UCH37 inh,HNF4A DNA FP,Vif TR-FRET,E coli growth,mol
x,x,1.5,1.3,-0.2,10.1%,0.698,O=C(Nc1ccccc1N1CCCCC1)c1ccc(N2C(=O)c3ccccc3C2=O)cc1
4.2,i,-0.2,2.3,-4.6,x,0.705,COc1ccc(C2(c3ccc(OC)cc3)NC(=O)N(CC(=O)Nc3ccc(OC)c(OC)c3)C2=O)cc1
1.0,i,3.7,3.6,-5.8,x,0.745,COc1cc(C(=O)NCc2ncccc2C)ccc1OC1CCN(C(C)=O)CC1
-3.4,i,-0.4,-7.8,0.1,6.6%,0.716,CCC(=O)NC(c1ccc(OC)cc1)c1c(O)ccc2ccccc12 (stereo not given)
x,x,1.0,-0.4,-1.3,7.2%,0.757,CCN(C(=O)CSc1nnnn1-c1cc(C)ccc1OC)C1CCS(=O)(=O)C1 (stereo not given)
-0.1,i,3.4,1.1,-3.7,-4.9%,0.711,CSCCC1COC(c2cccs2)=N1 (stereo not given)
-0.5,i,-1.3,2.1,3.6,0.8%,0.7,CCOc1cc(C=O)ccc1OCC(=O)NC(C)(C)C
-1.5,i,0.8,4.7,1.4,15.8%,x,CCO[C@H]1OC(C(=O)Nc2ccccc2)=C[C@@H](c2ccc(C(F)(F)F)cc2)[C@@H]1CCCO

AF4-AF9 inh,FGF22 binding,RanGTP-Imp inh,UCH37 inh,HNF4A DNA FP,Vif TR-FRET,E coli growth,mol
4.5,i,-5.5,6.0,-2.5,10.7%,0.694,CN(CC(=O)c1c(N)n(C)c(=O)n(C)c1=O)c1ccccc1
14.1,x,x,x,-3.1,-6.6%,x,O=C(Nc1ccn(CCCN2CCN(Cc3ccc(F)cc3)CC2)c(=O)n1)OCc1ccccc1
-4.0,i,-2.7,1.4,1.0,-2.6%,0.632,O=C1NC2=C(C(=O)CCC2)C(c2cccc([N+](=O)[O-])c2)N1 (stereo not given)
x,x,13.7,-9.8,1.9,u,x,CCCN(CCC)C1=N/C(=C\c2ccco2)C(=O)N1c1ccccc1
x,x,3.9,x,5.5,u,x,C/C(=N\NC(=O)c1c[nH]c2ccccc12)c1ccc(C)o1
x,x,7.0,3.2,5.9,-2.8%,0.693,Fc1ccc(NC(=S)N2N=CCC2c2ccccc2)cc1 (stereo not given)
x,x,-1.3,1.4,2.3,-4.6%,0.688,O=C(NC1CCCCC1)C1CCN(S(=O)(=O)c2cccs2)CC1
1.2,i,x,0.2,1.6,x,0.614,CC(OC(=O)C1CC2CCCC(C1)C2=O)C(=O)Nc1cccc([N+](=O)[O-])c1 (stereo not given)

Rewritten field by field: 3 of the compounds above.
CN(CC(=O)c1c(N)n(C)c(=O)n(C)c1=O)c1ccccc1
  AF4-AF9 inh = 4.5
  FGF22 binding = i
  RanGTP-Imp inh = -5.5
  UCH37 inh = 6.0
  HNF4A DNA FP = -2.5
  Vif TR-FRET = 10.7%
  E coli growth = 0.694

O=C(Nc1ccn(CCCN2CCN(Cc3ccc(F)cc3)CC2)c(=O)n1)OCc1ccccc1
  AF4-AF9 inh = 14.1
  FGF22 binding = x
  RanGTP-Imp inh = x
  UCH37 inh = x
  HNF4A DNA FP = -3.1
  Vif TR-FRET = -6.6%
  E coli growth = x

O=C1NC2=C(C(=O)CCC2)C(c2cccc([N+](=O)[O-])c2)N1 (stereo not given)
  AF4-AF9 inh = -4.0
  FGF22 binding = i
  RanGTP-Imp inh = -2.7
  UCH37 inh = 1.4
  HNF4A DNA FP = 1.0
  Vif TR-FRET = -2.6%
  E coli growth = 0.632

Next records
AF4-AF9 inh,FGF22 binding,RanGTP-Imp inh,UCH37 inh,HNF4A DNA FP,Vif TR-FRET,E coli growth,mol
-1.6,i,0.0,1.9,2.6,x,0.704,CCOc1ccc(NC(=O)NNC(=O)C(C)Oc2ccccc2OC)cc1 (stereo not given)
-1.2,x,x,x,1.3,x,x,COC(=O)C[C@H]1C=C[C@@H](NC(=O)NC2CCCCC2)[C@@H](CO)O1
2.5,i,-2.2,2.9,4.2,x,x,CC[C@@]12C(=O)N(c3ccc(C)cc3)C(=O)N1[C@H](c1cccc(C)c1)[C@@H]1C(=O)N(Cc3ccccc3)C(=O)[C@@H]12
-2.4,i,-4.9,-0.1,0.8,-0.1%,0.695,C=CCN=C(NC#N)SC
-4.6,i,-2.8,-1.4,-2.9,-4.0%,0.715,CCSCc1nc(N)nc(NCCc2ccccc2)n1
x,x,-1.6,-171.5,1.5,x,0.733,CCOC(=O)Cc1csc(/N=C/c2c(O)n(-c3ccc(C)c(C)c3)c(=O)c3ccccc23)n1
x,x,3.0,5.4,3.6,x,0.704,O=C(CCc1ccccc1)Nc1nn[nH]n1
-2.5,i,4.4,-26.8,24.9,x,0.74,Cc1cccc(-n2c(C)cc(/C=C3/C(=N)N4C(c5ccccc5)=CSC4=NC3=O)c2C)c1

AF4-AF9 inh,FGF22 binding,RanGTP-Imp inh,UCH37 inh,HNF4A DNA FP,Vif TR-FRET,E coli growth,mol
x,x,x,4.5,-62.2,x,0.719,O=C(NCCc1ccc(F)cc1)c1cccc2c1C(=O)c1ccc(N3CCC(Cc4ccccc4)CC3)cc1S2(=O)=O
2.1,i,2.7,4.4,-0.9,1.3%,0.658,COc1ccc(NC(=O)CSc2nc3ccc(OC)cc3[nH]2)cc1
x,x,u,2.1,-1.7,5.2%,0.728,COC(=O)c1ccccc1NC(=O)c1cc([N+](=O)[O-])nn1Cc1ccccc1
-0.5,i,-0.5,-1.6,0.6,-3.0%,0.681,O=C(CCC1CCCN(C(=O)C2(c3ccccc3)CC2)C1)N1CCN(c2ccccn2)CC1 (stereo not given)
0.3,i,3.3,4.4,3.6,u,0.719,COc1ccccc1NC(=O)Nc1ccccc1SC
1.8,i,-0.8,-12.0,4.7,1.0%,0.717,Cc1ccc2oc(=O)c3cc(C(=O)NCCCN4CCN(C)CC4)sc3c2c1
x,x,3.4,3.0,-2.3,-1.5%,0.647,CCOC(=O)N1CCC(NC(=O)CN2C(=O)C(CC)Oc3ccc(C)cc32)CC1 (stereo not given)
x,x,6.0,2.1,3.6,5.8%,0.787,CCCC(C)C(=O)Nc1ccc(Cl)cc1Cl (stereo not given)

AF4-AF9 inh,FGF22 binding,RanGTP-Imp inh,UCH37 inh,HNF4A DNA FP,Vif TR-FRET,E coli growth,mol
-2.5,i,0.2,4.2,-0.8,13.2%,0.693,c1cc(CNC2C3CC4CC(C3)CC2C4)ccn1 (stereo not given)
-2.5,i,-3.6,3.3,-1.3,-3.8%,0.681,C=CCc1cc(C)ccc1OCCCC(C(=O)OCC)C(=O)OCC
-0.7,i,x,-1.2,-2.1,x,0.718,O=S(=O)(Nc1ccc(Br)cc1)c1cccc(NS(=O)(=O)c2cccs2)c1
12.2,i,5.1,4.8,1.0,-2.2%,0.715,CC(=O)N1N=C(c2c(-c3ccccc3)c3cc(Br)ccc3[nH]c2=O)CC1c1ccco1 (stereo not given)
-4.0,i,x,x,1.1,x,x,COc1ccc(S(=O)(=O)NC(=O)C2(C)CCN2C(=O)CC2CC2)cc1 (stereo not given)
x,x,1.4,0.9,-3.2,-2.6%,0.726,CCCn1c(SCC(=O)N2c3ccccc3CCc3ccccc32)nc2c1c(=O)n(C)c(=O)n2C
x,x,1.5,0.0,2.5,5.1%,0.711,CC(CN1CCOCC1)C(=O)O (stereo not given)
3.5,i,-0.2,-0.2,-1.9,x,0.714,COc1cc(OC)c(NS(=O)(=O)c2c(C(=O)N3CCCCC3)c(C)n(C)c2C)cc1Cl

AF4-AF9 inh,FGF22 binding,RanGTP-Imp inh,UCH37 inh,HNF4A DNA FP,Vif TR-FRET,E coli growth,mol
x,x,-1.2,3.1,0.8,-2.5%,0.689,Cc1noc(NS(=O)(=O)c2ccc(N3C(=O)c4ccccc4C3=O)cc2)c1C
x,x,2.1,-1.4,2.2,0.8%,0.693,COc1ccccc1Nc1nc(N)nc(CN2CCN(c3ccccc3)CC2)n1
0.7,i,x,x,-0.8,x,x,COc1cccc(OCc2ccc(Cn3nc(NC(=O)NCCc4ccc(OC)c(OC)c4)c4ccccc43)cc2)c1
-0.5,i,0.4,0.9,0.6,x,0.69,COC(=O)[C@H](CC(C)C)NC(=O)Nc1cccc(Br)c1
1.7,i,6.2,x,3.0,6.5%,x,COc1ccc(C(C(=O)NCC2CCCO2)N(Cc2cccs2)C(=O)c2snc(C(N)=O)c2N)cc1OC (stereo not given)
x,x,-2.4,9.1,4.0,0.0%,0.761,Cc1ccc(Cc2cnc(NC(=O)/C(C#N)=C/c3ccc(-c4cccc([N+](=O)[O-])c4)o3)s2)cc1
-8.9,i,x,11.1,-1.7,18.9%,0.776,CCOC(=O)C1CCN(c2c(N3CCN(c4ccccc4OC)CC3)c(=O)c2=O)CC1
9.9,i,-0.7,3.0,2.4,-0.5%,0.742,Cc1ccc(-c2ccc(=O)n(CC(=O)N3CCN(c4cc(Cl)ccc4C)CC3)n2)cc1

AF4-AF9 inh,FGF22 binding,RanGTP-Imp inh,UCH37 inh,HNF4A DNA FP,Vif TR-FRET,E coli growth,mol
0.6,i,6.3,-0.2,-4.4,x,0.675,COc1cccc(CN(C)CC(=O)Nc2ccccc2C(C)C)c1
0.5,i,1.8,4.2,2.4,-2.9%,0.641,CC(C)(C)OC(=O)N1Cc2cc3ccccc3nc2C1CO (stereo not given)
x,x,2.7,3.6,1.7,0.6%,0.693,Cn1c(=O)c2c(ncn2CC(=O)OCc2ccccc2)n(C)c1=O
-1.3,i,-0.3,3.4,-0.2,x,0.646,COc1ccc(C)cc1NC(=S)N1CCOCC1
-1.9,i,-5.0,1.2,41.0,x,0.685,COc1cc(/C=C(\C#N)c2nc(-c3cc4ccccc4oc3=O)cs2)ccc1O
x,x,u,-346.2,x,-0.8%,0.66,CCOC(=O)N1CCC(NC(=O)c2ccc3nc4ccccc4c(=O)n3c2)CC1
x,x,-0.7,3.9,-5.3,5.6%,0.713,Cc1cc(C(=O)OCC(=O)Nc2ccc(F)c(F)c2)c(C)o1
3.3,i,-5.4,4.7,-0.3,5.7%,0.664,NS(=O)(=O)c1ccc(Nc2ncccc2[N+](=O)[O-])cc1

AF4-AF9 inh,FGF22 binding,RanGTP-Imp inh,UCH37 inh,HNF4A DNA FP,Vif TR-FRET,E coli growth,mol
0.2,i,-4.1,1.5,-0.6,12.8%,0.66,COc1ccc(CC(=O)OCC(=O)Nc2ccc3c(c2)OCO3)cc1OC
u,i,x,4.1,-5.6,-9.5%,0.651,NS(=O)(=O)c1ccc(CNC(=O)c2cccc(S(=O)(=O)N3CCc4ccccc43)c2)cc1
-4.6,i,1.6,3.3,1.9,x,0.726,CCOc1ccc(S(=O)(=O)N2CCCC(C(=O)NCc3ccncc3)C2)cc1 (stereo not given)
x,x,0.1,1.9,0.1,-5.7%,0.665,CCCSCCCNC(=O)c1cc2c(s1)CS(=O)(=O)C2
x,x,1.8,4.1,0.6,-0.7%,0.702,COc1ccccc1OCc1nnc(SCC(=O)c2cc(Cl)ccc2OC)o1
6.1,i,5.1,-0.6,15.8,7.0%,0.708,COc1ccc(CCC(C)Nc2ccc(F)cc2)cc1 (stereo not given)
x,x,-0.6,1.4,6.1,5.5%,0.714,COc1cc(NC(=O)CN2C(=O)NC(C)(CCC(C)C)C2=O)cc(OC)c1 (stereo not given)
1.7,i,x,x,2.7,-2.9%,x,Cc1ccc(CCN2CC(C(=O)NC3CCC(C)CC3)CC2=O)cc1 (stereo not given)
-0.3,i,x,x,0.9,x,x,COc1cccc(C(C)(O)c2nc(/C=C/c3ccccc3)cs2)c1 (stereo not given)
1.4,i,x,x,2.1,x,x,COc1cccc(C(C)(O)c2nc(-c3ccc4ccccc4c3)cs2)c1 (stereo not given)
-5.3,i,0.3,1.8,-0.4,1.5%,0.686,CC1CCN(C(=O)CCN2C(=O)C3C4C=CC(C4)C3C2=O)CC1 (stereo not given)
